# High-throughput results deposited in PubChem by several laboratories.
# BJeLR viability = kills HRASV12-expressing BJeLR cells; BJeLR (HRASV12) viability, CellTiter-Glo ATP luminescence, 48 h; reference of the scale not given here; inhibition, % (test concentration not listed); actives 0.17% (n = 300,000); AID 1554;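 active = replicate mean above 50%; inconclusive = above 50% but judged a plate artefact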;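 also: 50 nL library stock added to about 25 µL; numbers are from one replicate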
# Sa RN4220 lethal = kills Staphylococcus aureus RN4220 | S. aureus RN4220 growth, OD600, 16 h | inhibition, % (no concentration beside the values) | actives 0.33% (n = 330,000) | AID 1259311;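 active = z-score of -3 or lower and OD600 up to 0.18 on both plates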;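 also: plate controls were untreated cells for no effect and reference antibiotic for full effect; stock transfer was 100 nL into about 80 µL; one replicate is shown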
# ugtP null kill = kills S. aureus RN4220 lacking UgtP | S. aureus RN4220 ugtP deletion, OD600 growth, 16 h; some inactives read as strong as hits | growth inhibition, % (test concentration not listed) | actives 0.54% (n = 330,000);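 active = z-score under -3 and OD600 up to 0.15 on both plates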;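 also: plate controls were untreated wells for no effect and antibiotic for full effect; wells of about 80 µL received 100 nL stock; the first replicate is given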
# Autofluor counter = flagged as autofluorescent in microsphere protease counterscreen; compound autofluorescence counterscreen, microsphere flow cytometry; active compounds read high; fluorescence intensity (no concentration beside the values); actives 3.1% (n = 360,000); AID 624483;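 active = at least 3 SD above the mean of all compounds, about 16000 in these data; inconclusive = too few beads counted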;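 also: 100 nL of 1 mM stock went into each well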
# Mtb hypoxia rep = inhibitors of hypoxia-regulated fluorescent reporter in Mycobacterium tuberculosis; M. tuberculosis hypoxia-regulated fluorescent reporter, fluorescence; fluorescence inhibition, % (test concentration not listed); actives 0.1% (n = 300,000); AID 1159583;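 active = 35 to 45% if threefold the growth effect, above 45% if 1.5-fold the growth effect; inactive = the rest, general growth blockers included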;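 also: wells of about 50 µL received 100 nL stock; 0% = vehicle wells and 100% = reference inhibitor wells; whole bacteria with a GFP reporter of the hypoxia response; strong numbers were not always called active; many hits fall short of the cut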
# PrP 5UTR inh = inhibition of PrP 5' UTR reporter expression | cell-based PrP 5' UTR mRNA reporter, plate reader | inhibition, % (no concentration beside the values) | actives 0.35% (n = 340,000);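 active = every replicate at 50% or more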;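 also: 0 = median of the neutral control wells; tested in H4 reporter cells; numbers are from one replicate; inactives centre near -14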
# Mtb hypoxia rep growth = also measured in Mtb hypoxia rep; calls as there; growth inhibition, %; measured here: M. tuberculosis growth (absorbance);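 0% = vehicle and 100% = reference antibiotic; read after six days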
# * = called active by the depositor; ? = inconclusive; . = no result given.
SMILES,BJeLR viability,Sa RN4220 lethal,ugtP null kill,Autofluor counter,Mtb hypoxia rep,Mtb hypoxia rep growth,PrP 5UTR inh
CC(Sc1nnc(-c2cccnc2)n1N)C(=O)NCCC1=CCCCC1 (stereo not given),.,-2.2,-1,4430,-7,-4,-35
COc1cc2nc(CN3CCN(S(=O)(=O)c4c(F)cccc4F)CC3)[nH]c(=O)c2cc1OC,.,2.9,7,6503,7,-3,-41
Cc1ccccc1NC(=O)CCNS(=O)(=O)c1ccc2c(c1)CCC(=O)N2,4,2.8,2,5535,8,13,-9
O=c1[nH]c2ccccc2n1C1CCCCC1,10,0.1,-4,10801,-15,-6,.
CCCSc1nc2c(c(=O)[nH]c(=O)n2C)n1CC(O)COc1ccccc1 (stereo not given),10,12,7,6029,15,-4,-9
C=CCSC1=N/C(=C\c2cc(OC)c3c(c2)OCO3)C(=O)S1,-3,.,.,3278,.,.,-15
CS(=O)(=O)c1cccc(C(=O)Nc2nnc(C3=COCCO3)o2)c1,1,2.4,3,.,-2,-3,2
O=C(C1=C[C@H](c2ccccc2)C[C@H](OCCCCO)O1)N1CCN(Cc2ccccc2)CC1,8,.,.,3640,.,.,-12
O=C(NCCCn1ccnc1)c1cn(Cc2ccc(F)cc2)nn1,-1,-0.4,-2,4505,-1,8,-14
CC1=Nc2ccccc2N=C(NC(=O)CSc2nnnn2-c2ccccc2)C1c1ccccc1 (stereo not given),8,0.0,4,2410,.,.,-8
O=C(CN(C(=O)CNC(=O)c1ccco1)c1ccc(F)cc1)NC1CCCCC1,-8,1.5,13,5215,2,4,-25
Cc1ccc(S(=O)(=O)N2CCCN(C(=O)c3ccc(-n4nccc4C)cc3)CC2)cc1,.,0.8,3,5896,6,-7,-4
Cc1nc2ccc(NC(=O)c3nn(CC(C)C)c(=O)c4ccccc34)cc2s1,2,19,-16,12162,5,-2,-22
CCOCCn1ccc2c(OCC(=O)Nc3ccccc3F)cccc2c1=O,-5,.,.,6050,.,.,3
COc1ccc(N(C)C(=O)c2ccc(NC(=O)CCS(=O)(=O)c3cccs3)cc2)cc1,2,4.0,1,5929,11,0,-10
Cc1ccc(OCC(=O)NC(=S)Nc2cccc(NC(=O)c3ccc(Cl)cc3Cl)c2)cc1,-5,-5.0,1,2124,8,7,2
CCOc1cc(CNCc2ccncc2)cc(Br)c1OCc1ccccc1F,7,4.2,92*,?,12,10,-27
COc1cccc(CNC(C)C(=O)Nc2ccc(S(=O)(=O)N3CCCC3)cc2)c1 (stereo not given),.,5.8,3,3918,9,11,-7
COc1ccc(-c2cccc(C(=O)N3CCOCC3)c2)cc1,-7,3.0,0,3818,.,.,-22
O=C(Cc1c(C(=O)O)[nH]c2ccccc12)NCCN1CCN(c2ccccc2F)CC1,9,.,.,23477*,.,.,-29
COc1ccc(C(=O)NC(=S)Nc2cccc3cc(O)ccc23)cc1OC,-15,-0.7,-4,6421,0,2,-11
COc1ccccc1NC(=O)Nc1nn(C)c2cccc(N(C)C)c12,3,4.7,15,6380,9,-3,-24
N#Cc1c2c(c(NCc3cccnc3)n3c1nc1ccccc13)CCC2,5,1.5,14,3128,6,1,2
O=C1CCCC/C1=C/Nc1cccc(C(F)(F)F)c1,6,10,-1,2617,-7,-1,-24
COCCn1c(-c2ccccc2)nc2c(c(=O)c3ccccc3n2C)c1=O,7,4.8,2,.,9,2,.

# The listing continues:
SMILES,BJeLR viability,Sa RN4220 lethal,ugtP null kill,Autofluor counter,Mtb hypoxia rep,Mtb hypoxia rep growth,PrP 5UTR inh
Cc1cc(NC(=O)C2CC(=O)OC2c2ccccc2)no1 (stereo not given),-12,3.1,0,23968*,1,2,-30
COc1ccc(C2NC(=O)NC(C)=C2C(=O)OCc2ccccc2)cc1 (stereo not given),-10,0.9,0,4284,1,-1,-43
CCCN(CC(=O)Nc1ccc(F)c(F)c1F)C(=O)C1=COCCO1,-5,2.4,1,6463,-7,4,-6
O=C(c1cc(-c2ccc(O)cc2)on1)N1CCN(c2ccccc2)CC1,-5,5.2,14,6142,5,1,-13
COc1ccc(OC)c(/C=N/NC(=O)CCN2CCN(C(c3ccccc3)c3ccccc3)CC2)c1,-12,.,.,2039,.,.,5
O=C(NCC1CCCO1)C1CC(=O)N(c2ccc(Cl)cc2)C1 (stereo not given),-4,0.7,7,5800,-14,-4,-14
Cc1nn(Cc2ccccc2)c2ncccc12,-8,3.0,4,3882,-3,-6,-10
COc1ccc(-c2nc(C#N)c(N3CCN(c4ccccc4)CC3)o2)cc1,2,5.3,-10,5922,-6,-5,-31
NNC(=O)CCS(=O)(=O)c1ccc2ccccc2c1,7,-2.3,-6,4949,.,.,-12
Cc1cc(C)n(C(=O)CNc2cccc(Cl)c2C)n1,-3,0.3,-3,4603,.,.,-6
Cc1cc(C)c(S(=O)(=O)N2CCN(C(=O)CCn3nc(C)c(C)c3C)CC2)c(C)c1,-12,5.3,4,4483,-29,-8,2
CCC1CCCCN1C(=S)Nc1ccc(C(C)=O)cc1 (stereo not given),-3,7.1,4,2510,5,1,-15
Cc1cc(NC(=O)CCN2CC(C)OC(C)C2)ccc1Br (stereo not given),1,2.1,17,3187,0,-2,-23
Cc1ccc(Nc2nc(N)nc(CN3CCN(Cc4ccc5c(c4)OCO5)CC3)n2)c(C)c1,-20,0.5,1,4089,1,20,-20
Cc1ccc(Nc2ccc(S(=O)(=O)N3CCOCC3)cc2[N+](=O)[O-])cc1C,-3,-4.9,6,2474,-7,-3,-6
O=C(COC(=O)CCC(=O)c1cccs1)NCc1ccccc1,5,0.3,3,4418,7,5,-6
CCOc1ccc(S(=O)(=O)N2CCN(c3ccccc3F)CC2)c2cccnc12,-5,1.4,-18,2014,-3,-9,-3
CCN(CC)S(=O)(=O)c1ccc(Cl)c(NC(=O)COc2ccc(OC)cc2[N+](=O)[O-])c1,2,5.2,1,2466,4,12,4
Cc1ccc(C2(C)NC(=O)N(CC(=O)N(c3ccccc3)C3CCS(=O)(=O)C3)C2=O)cc1 (stereo not given),.,2.1,6,4401,6,7,-16
CCOC(=O)CSCCOc1ccc(C=C2C(=O)NC(=O)NC2=O)cc1OC,0,4.4,8,4494,19,10,-15
CS(=O)(=O)N1CCC(Oc2ccccc2C(=O)N2CCN(CC3CC3)CC2)CC1,9,0.7,10,4691,5,-7,-31
COc1ccc(C2C(C(=O)Nc3ccc(OC)c(OC)c3)c3ccccc3C(=O)N2C)cc1 (stereo not given),8,0.0,0,3232,1,12,-16
COc1ccc(CNC(=O)CCC2N=C3c4ccccc4N=C(SCC(=O)NCC4CCCO4)N3C2=O)cc1 (stereo not given),-3,-1.3,-1,7419,-5,9,-1
CC(=O)Nc1c(Nc2ccccc2)c2ccccc2oc1=O,-7,3.9,5,4647,4,4,-4
O=C(Cc1ccccc1)Nc1ccc(C(=O)NCc2ccccc2)cc1,-1,-3.4,8,4708,1,4,-14

# 5 records drawn at random from those above, as already listed:
SMILES,BJeLR viability,Sa RN4220 lethal,ugtP null kill,Autofluor counter,Mtb hypoxia rep,Mtb hypoxia rep growth,PrP 5UTR inh
CCCN(CC(=O)Nc1ccc(F)c(F)c1F)C(=O)C1=COCCO1,-5,2.4,1,6463,-7,4,-6
CC(=O)Nc1c(Nc2ccccc2)c2ccccc2oc1=O,-7,3.9,5,4647,4,4,-4
CCOc1ccc(S(=O)(=O)N2CCN(c3ccccc3F)CC2)c2cccnc12,-5,1.4,-18,2014,-3,-9,-3
Cc1ccc(Nc2nc(N)nc(CN3CCN(Cc4ccc5c(c4)OCO5)CC3)n2)c(C)c1,-20,0.5,1,4089,1,20,-20
O=C(c1cc(-c2ccc(O)cc2)on1)N1CCN(c2ccccc2)CC1,-5,5.2,14,6142,5,1,-13

# Further structures follow.
SMILES,BJeLR viability,Sa RN4220 lethal,ugtP null kill,Autofluor counter,Mtb hypoxia rep,Mtb hypoxia rep growth,PrP 5UTR inh
CCC(O)(CC)C(=O)N(Nc1ccc(C)cc1)c1ccc(C)cc1,4,2.4,13,3066,-7,5,-9
NS(=O)(=O)c1ccc(CCNC(=O)COC(=O)COc2cccc(C(F)(F)F)c2)cc1,.,3.4,6,4059,3,-4,-10
COc1ccc(Oc2ccc(C(F)(F)F)cc2NC(=O)CC(CC(=O)O)c2ccccc2)cc1 (stereo not given),-2,6.2,2,3666,-6,-6,37
O=C(O)CSC(NC(=O)c1cccnc1)(C(F)(F)F)C(F)(F)F,-7,3.1,11,6741,9,3,-12
O=C(NC(Cc1c[nH]c2ccccc12)C(=O)O)c1cccs1 (stereo not given),6,1.7,4,4152,7,3,-31
COc1ccccc1OCc1ccc(C(=O)N/N=C/c2ccco2)cc1,-10,.,.,11363,.,.,-5
Cc1ccc(CN(C)CCc2ccccn2)cc1,-8,-1.1,-2,12063,-2,8,.
CC(=NCCN1CCCCC1)c1c(O)n(-c2ccccc2)c(=O)[nH]c1=O,6,3.5,4,4135,-2,8,3
Cc1[nH]c2ccc(C(=O)NCCCN3CCN(C)CC3)cc2c1C,8,1.6,3,5608,6,6,-21
C/C=C\C(=O)Nc1cccc(C2=NOC3(C2)C[C@@H](C(N)=O)N(C(=O)CCCCC)C3)c1 (stereo not given in full),3,.,.,3683,.,.,-19
O=C(NN=Cc1ccc(N2CCOCC2)o1)c1ccccc1[N+](=O)[O-],.,0.7,-3,.,-5,2,.
COc1ccc(NC(=O)CSc2nnc(Cc3cccs3)n2C)cc1,5,1.6,3,4269,7,-10,-7
Cc1cccc(OCCCCCN2CCOCC2)c1C,-2,3.5,11,3301,5,8,-15
Cc1ccc(S(=O)(=O)N2CCCCC2)cc1NC(=O)c1ccccn1,3,5.0,15,5033,14,0,-29
CCN(CC)c1nc(C)c2c(c1C#N)CC(C)(C)OC2,-18,5.3,3,2504,.,.,-6
O=C(CSc1nnc2sc3ccccc3n12)N1CCN(c2ccccc2)CC1,6,2.0,7,7867,6,8,-22
COc1ccc2c(c1)C(c1ccccc1)=NNC(c1ccco1)=N2,-5,-0.2,-4,9073,3,3,-14
CCOCCCNC(=O)C(c1ccccc1)N(Cc1cccs1)C(=O)CNC(=O)c1ccccc1 (stereo not given),-4,4.4,1,2650,1,0,-19
O=C(c1cccc(NS(=O)(=O)c2cccc(F)c2)c1)N1CCN(c2ccccc2)CC1,-7,0.2,-2,7830,2,0,-30
COc1ccc2c(c1)C(=NN)c1cc(OC)ccc1-2,-9,3.0,36,12791,6,6,-35
O=C(Cn1c2ccccc2c(=O)c2ccccc21)N/N=C/c1cc([N+](=O)[O-])ccc1N1CCCCCC1,1,.,.,8674,.,.,-8
O=C(N/N=C/c1cccc([N+](=O)[O-])c1)c1cnccn1,-2,.,.,2411,.,.,-2
COc1ccccc1C=NNC(=O)c1nnn(-c2nonc2N)c1CN(C)c1ccccc1,.,6.1,0,.,5,0,.
COc1ccc(C(C)=NNS(C)(=O)=O)c(OC)c1,.,7.0,13,.,8,3,.
Cn1c(=O)cc(C(=O)NN=Cc2ccc(F)cc2)[nH]c1=O,.,0.6,2,.,3,-4,.

# The list goes on.
SMILES,BJeLR viability,Sa RN4220 lethal,ugtP null kill,Autofluor counter,Mtb hypoxia rep,Mtb hypoxia rep growth,PrP 5UTR inh
CC1CCC(=O)N(C(CN=[N+]=[N-])Cc2ccccc2)CC1 (stereo not given),.,-0.8,-7,.,-6,9,.
CCOC(=O)c1c(C)[nH]c(C)c1S(=O)(=O)NC(CC)CN1CCOCC1 (stereo not given),2,1.3,2,5092,5,-2,-36
CCCCCn1c(=O)[nH]c2cc(C(=O)Nc3ccc(OC)cc3)ccc2c1=O,-1,1.0,3,3580,-2,2,-11
O=c1c2ccccc2n(Cc2ccc(Cl)cc2)c(=O)n1Cc1ccco1,1,-1.7,6,2468,.,.,-20
COc1ccc(C)cc1-n1c(SCC(=O)Nc2cccc(C(=O)O)c2)nc2ccccc2c1=O,-3,7.6,5,?,8,0,4
Cc1cc(Cl)ccc1OCC(=O)NCCCCc1ccccc1,-6,14,-4,10746,-2,-5,-16
CSc1ccccc1Sc1cc(C(=O)O)c2ccccc2n1,13,7.3,13,2455,7,8,4
CCOC(=O)C1=CN(Cc2cccc(F)c2)S(=O)(=O)N(C)C1c1ccc2ccccc2c1 (stereo not given),.,3.7,3,3430,5,6,-19
COc1ccc(Nc2cc(=O)n(-c3ccccc3)c3c2c(=O)n(C)c(=O)n3C)cc1,8,2.0,14,5668,12,8,-7
O=C(Cc1c(Cl)cccc1Cl)OCC(=O)N1CCN(C(=O)c2ccco2)CC1,0,3.1,10,2438,11,0,-9
